Vaccinia mCherry – vaccinia inhibition (mCherry reporter); Vaccinia virus mCherry reporter infection, fluorescence; about a quarter of the inactives have no number; Potency, µM (series often up to 36.5 µM), without a hit: at the top dose activity change, negative = inhibition, hits mostly inhibitors; 310,000 compounds, 0.63% hits; active = well fitted inhibition curve with a large enough effect; inconclusive = small, poorly fitted or top-dose-only effect; inactive = no such curve, though single readings can be large or run the other way; tested in A549 cells; also: nearly all actives have a fitted effect of over 35% in size; inactives centre near -10
VACV Venus inh – vaccinia inhibition (Venus reporter). AID 720580. Potency, µM (series often up to 36.5 µM), inactives show top-dose activity change, negative = inhibition, most hits filed as inhibitors. 330,000 compounds, 0.46% hits. Vaccinia virus Venus reporter expression, fluorescence; active means well fitted inhibition curve with a large enough effect; inconclusive means small, poorly fitted or top-dose-only effect; inactive means no such curve, though single readings can be large or run the other way; tested in A549 cells; also: nearly all actives have a fitted effect of over 30% in size; inactives centre near -10
* = called active by the depositor; i = inactive; ? = inconclusive; nt = no result given; & = joins results of further samples; [ ] = remark or other dose. % is scaled to controls: 0 for no effect and ±100 for the full control effect; potency is read from the fitted curve at half-maximal effect. Not a hit list (roughly 0.82% active in at least one column).

SMILES | Vaccinia mCherry | VACV Venus inh
COC(=O)CCCCCn1c(-c2ccccc2)cn2c3c(=O)n(C)c(=O)n(C)c3nc12 | -11% | -3%
CN(C)c1ccc(NC(=O)CSC2=Nc3ccccc3C3=NC(CCC(=O)NCc4cccs4)C(=O)N23)cc1 (configuration not stated) | i | -19%
Cc1c(O)ccc2c(CN(C)Cc3ccccc3)cc(=O)oc12 | i | -13%
CC1(c2nnnn2-c2ccc3c(c2)OCCO3)CCC(=O)N1CC1CCCCC1 (configuration not stated) | 0% | 3%
Fc1ccc(-n2c(=S)[nH]c3cccnc32)cc1 | -6% | -22%
COc1cc2cc(C(c3nnnn3C3CCCC3)N3CCCCC3)c(=O)[nH]c2cc1OC (configuration not stated) | i | -4%
COc1ccc(/C=C/C(=O)Nc2cc(S(=O)(=O)N3CCOCC3)ccc2OC)cc1 | -3% | -1%
N#C/C(=C\c1ccc([N+](=O)[O-])cc1)c1ccccn1 | -25% | -15%
CC(=O)Nc1ccc(NC(=O)CSc2nc3nc(-c4cccs4)cc(C(F)(F)F)c3c(=O)[nH]2)cc1 | 5%[7.34 µM] | 28%[7.34 µM]
O=C1CCCN1CCCNC(=S)Nc1ccc(F)c(Cl)c1 | i | -13%
Cc1cccc(C)c1Nc1sc(C(=O)c2ccccc2)c(N)c1S(=O)(=O)c1ccccc1 | -30% | -22%
Cc1cc(=O)[nH]c(SCCc2ccccc2)n1 | i | -11%
Cc1ccc(Cl)cc1N1CCN(C(=O)c2ccc3nc(N4CCC(C)CC4)sc3c2)CC1 | -16% | -23%
CC(CN1CCOCC1)OC(=O)c1ccccc1Br (configuration not stated) | nt | -21%
C=C(C)Cn1c(SCC(=O)O)nnc1-c1ccc(C(C)(C)C)cc1 | nt | -4%
CNc1ncnc2c1ncn2[C@@H]1O[C@H](CO)[C@@H](O)[C@H]1O | -7% | 3%&2%
Nc1nc(SCC(=O)N2CCCCCC2)[nH]c(=O)c1NC(=O)c1ccco1 | i | -5%
CCOC(=O)c1sc(NC(=O)C(C)Sc2nc(N)cc(=O)[nH]2)nc1C (configuration not stated) | i | -15%
COC(=O)c1cccc(NC(=S)Nc2cccc(Cl)c2C)c1 | -8% | -14%
CN(C)S(=O)(=O)c1cc(NC(=O)COC(=O)Cc2ccc(Cl)cc2Cl)ccc1Cl | -9% | -2%
COc1ccccc1NC(=O)c1ccc2c(Cl)c3c(nc2c1)CCCC3 | 0% | 7%
Cc1nn(-c2ccc(Cl)cc2Cl)c(C)c1C(=O)O | i | -3%
CS(=O)(=O)Nc1ccc(N2CCN(c3ccc(C(F)(F)F)cn3)CC2)nc1 | -28% | -17%
CCOC(=O)c1c(NC(=O)CN2C(=O)CN(C)C2=O)sc(C)c1C | 2% | -7%
COc1ccc(-c2cn3nc(N4CCC(C(=O)Nc5ccc(C)cc5)CC4)sc3n2)cc1 | -22% | -16%
COCCCN=CC1=C(O)CC(C)(C)CC1=O | -10% | -1%
Cc1ccc(S(=O)(=O)NC(CC(N)=O)C(=O)O)cc1 (configuration not stated) | nt | -2%
COC(=O)C1N[C@@H]([C@@H](NC(=O)COc2ccccc2)C(=O)NC2CC2)SC1(C)C (some centres not stated) | i | 3%&-9%
CCCOc1ccc(C(=O)C(CN2CCOCC2)c2ccccc2)cc1 (configuration not stated) | ? | ?
C=CCn1c(SCc2ccc(Cl)cc2)nc2cc(C(=O)N3CCC(C(N)=O)CC3)ccc2c1=O | -13% | -17%
O=C(CCC(=O)c1cccs1)NCc1cccc(Cl)c1 | i | -6%
CCOc1ccccc1NC(=O)C1C2C=CC(O2)C1C(=O)O (configuration not stated) | i | -6%
CCc1nc2c(OCCn3cccc3)cccn2c1N(C=O)Cc1ccccc1 | -22% | -4%
COc1ccccc1C1(CCNC(C)c2cccs2)CCOC(C(C)C)C1 (configuration not stated) | ? | -28%
COCc1cc(C)nc(SCC(=O)Nc2nc(C)cs2)c1C#N | ? | -5%
CC(C)(C)OC(=O)N[C@@H](Cc1ccccc1)C(=O)N[C@@H](CO)[C@H](O)[C@@H]1C[C@@H]1C(=O)N1CCCC1 | i | -1%
O=C(COC(=O)Cn1cnc2ccccc2c1=O)NCc1ccccc1 | i | 2%
CCOC(=O)c1c(CC(C)C)csc1NC(C)=O | nt | -25%
CCC(=O)Nc1sc(C(=O)Nc2ccccc2F)c(C)c1C(=O)OC | -7% | -16%
Cc1ccccc1NC(=O)CSc1ccc(-c2cccnc2)nn1 | i | -8%
O=C(Cc1ccccc1)Nc1nc2ccccc2[nH]1 | -16% | -11%
Cc1ccc2oc(=O)n(CCNC(=O)Nc3ccc(Cl)cc3)c2c1 | -11% | -10%
CCOc1ccc(NC(=O)c2ccc(F)c(S(=O)(=O)N3CCCC3)c2)cc1 | 0% | -28%
CC1CCCCC1NC(=O)CN1C(=O)NC(C)(c2ccc(OC(F)F)cc2)C1=O (configuration not stated) | -19% | -14%
Oc1ccccc1N1CCN(C(=S)NCc2ccccc2)CC1 | -28% | -8%
O=c1c2ccccc2sn1-c1ccccc1F | -14% | ?
N#Cc1c(NC(=O)CCCN2C(=O)c3ccccc3C2=O)oc(-c2ccccc2)c1-c1ccccc1 | nt | -13%
COc1ccccc1NC(=O)N(C)C[C@@H]1OCc2cnnn2CCCC(=O)N([C@H](C)CO)C[C@@H]1C | -19% | -4%

Four entries from above, field by field.
> Oc1ccccc1N1CCN(C(=S)NCc2ccccc2)CC1
  Vaccinia mCherry: -28%
  VACV Venus inh: -8%

> O=c1c2ccccc2sn1-c1ccccc1F
  Vaccinia mCherry: -14%
  VACV Venus inh: ?

> N#Cc1c(NC(=O)CCCN2C(=O)c3ccccc3C2=O)oc(-c2ccccc2)c1-c1ccccc1
  Vaccinia mCherry: nt
  VACV Venus inh: -13%

> COc1ccccc1NC(=O)N(C)C[C@@H]1OCc2cnnn2CCCC(=O)N([C@H](C)CO)C[C@@H]1C
  Vaccinia mCherry: -19%
  VACV Venus inh: -4%

Following part:
SMILES | Vaccinia mCherry | VACV Venus inh
O=C(COC(=O)c1ccccc1-c1ccccc1[N+](=O)[O-])c1ccccc1 | nt | -16%
COc1cc2[nH]c(=S)nc(NCCc3ccc(S(N)(=O)=O)cc3)c2cc1OC | -4% | -14%
CCOC(=O)[C@]12CCC=C1N(Cc1ccccc1)C(=O)[C@H](CC(=O)N1CCCC1)C2 | -4% | -3%
O=C(N/N=C/c1ccc(OC(F)F)cc1)c1ccc(CSc2nc3ccccc3[nH]2)cc1 | -10% | 5%
COc1ccc2c(c1)c1c(c(=O)n(-c3ccc(F)c(Cl)c3)c(=O)n1CC(=O)N1CCCC1)n2C | 9% | 3%
O=C(C[n+]1cccc2cc(Cl)ccc21)c1ccc(I)cc1 | -16% | 78%[activator]
CC[C@]12c3[nH]c4ccc(OC)cc4c3CCN1C(=O)C(CC(=O)NCCCOC)C[C@@H]2C(=O)N1CCN(C(=O)C2CC2)CC1 (some centres not stated) | -10% | -3%
c1ccc(-c2csc3ncn4nnnc4c23)cc1 | -1% | -4%
O=C(c1ccc(Cl)c(S(=O)(=O)N2CCOCC2)c1)N1CCCC1 | 30% | 3%
CCCCc1c(C)[nH]c2nc3ccccc3n2c1=O | -12% | -1%
CCN1CCN(c2cc3c(nn2)Oc2ccccc2N3C)CC1 | -22% | -7%
CC(C)NC(=O)CCC(=O)N1Cc2ccccc2Oc2ncccc21 | -13% | -4%
O=C(CCN1C(=O)c2ccccc2C1=O)N1CCN(C2c3ccccc3-c3ccccc32)CC1 | i | -8%
CC1CCCCN1C(=O)CSc1n[nH]c(-c2ccccc2)n1 (configuration not stated) | -9% | -3%
O=C(CNS(=O)(=O)c1cccc(Br)c1)NCCCc1ccccc1 | -3% | -8%
Cc1ccc(N(C(=O)Cn2nnc3ccccc32)C(C(=O)NCc2ccco2)c2ccc(C)o2)cc1 (configuration not stated) | nt | -17%
O=C(O)C1Cc2ccccc2CN1C(=O)COc1ccc(Cl)cc1 (configuration not stated) | i | -13%
CCCCCc1cc(=O)oc2c(C(CCN3CCCC(C)C3)c3ccc(OC)cc3)c(OC)cc(OC)c12 (configuration not stated) | -15% | ?
COc1ccc(NC(=O)NC2(C(=O)N3CCCCC3)CCCCC2)cc1 | i | -9%
O=C(NCc1cccnc1)C(=O)NCC1OCCN1S(=O)(=O)c1ccc(F)cc1 (configuration not stated) | -12% | -2%
O=C1C=C(c2cc(Cl)cc(Cl)c2)C[C@@H](c2ccc(F)cc2)C1 | -5% | -16%
O=C(N/N=C/c1ccncc1)c1ccc2c(c1)OCO2 | -7% | -9%
CC1CCc2nn(CC(=O)NCCN3CCCCC3C)cc2C1 (configuration not stated) | -7% | -8%
O=C(c1ccncc1)N1CCN(c2ccc(F)cc2)CC1 | -14% | -13%
CC(C)(C)c1ccc(/C=C(\C#N)C(=O)NCCN2CCOCC2)cc1 | -7% | -1%
COc1cc(OC)cc(C(=O)NNC(=O)c2ccc3ccccc3n2)c1 | ? | ?
O=C(COc1ccccc1)Nc1cc2c3c(c1)CC(=O)N3CCC2 | -19% | -11%
COCOc1cccc(CN2CCC2(C)C(=O)NCCNC(C)=O)c1 (configuration not stated) | i | -8%
CCOc1ccc(CO[C@@H]2O[C@H](CO)[C@@H](O)[C@H](O)[C@H]2NC(C)=O)cc1OC | -11% | 3%
COc1ccccc1/C=C/C=N/NC(=O)c1cnccn1 | -8% | 1%
COc1ccc(-n2nc(C(=O)NCC3CCCO3)c3ccccc3c2=O)cc1 (configuration not stated) | -18% | -4%
C/C(CC(=O)Nc1ccc(OCc2ccccc2)cc1)=N\NC(=O)C(=O)Nc1ccccc1C | nt | -30%
O=C(NCCN1CCOCC1)c1ccc(Cl)c(S(=O)(=O)N2CCCC2)c1 | i | -14%
CC(C)C(=O)N=C1SC2CS(=O)(=O)CC2N1Cc1ccccc1 (configuration not stated) | i | -13%
CC(C)C[C@H](NC(=O)c1nc[nH]c1C(=O)N[C@@H](CCCCNC(=O)OC(C)(C)C)C(=O)OC(C)(C)C)C(=O)OC(C)(C)C | ? | ?
Cc1cc(C)c(NC(=O)COC(=O)C2CCC(=O)N2)c(C)c1 (configuration not stated) | -1% | 0%
Cc1ccc(C=O)cc1Cl | 15% | 16%
N#Cc1ccc(NC(=O)COC(=O)CCNS(=O)(=O)c2ccccc2)cc1 | -1% | -1%
CN1CCN(c2nc3c(S(=O)(=O)c4ccccc4)nnn3c3ccsc23)CC1 | -20% | -5%
COC(=O)C1=C(C)N(C2CCCCC2)C(=O)/C1=C\c1cccs1 | -15% | -7%
O=C(NCCCn1ccnc1)c1ccccc1Cl | -3% | 3%
Cc1ccc(C(C(=O)NC2CCCC2)N(Cc2cccs2)C(=O)c2csnn2)o1 (configuration not stated) | -12% | -12%
COc1ccc(-c2nc3n(n2)C(c2ccccc2OC)C(C(=O)Nc2cccnc2)=C(C)N3)cc1 (configuration not stated) | 2% | -4%
CCOC1CCCC(n2cnc3c(=S)nc[nH]c32)O1 (configuration not stated) | i | -9%
O=C(NC(c1ccc(-c2ccccc2)cc1)c1cnccn1)C1CCN(Cc2ccc3c(c2)OCO3)CC1 (configuration not stated) | ? | ?
CN(C)c1ccc(/C=C2\Cc3ccccc3C2=O)cc1 | -13% | 41%[activator]
COCCNC(=O)c1ccc(Cn2c(SCC(N)=O)nc3ccccc3c2=O)cc1 | 0% | -2%
CC(=O)c1ccc(S(=O)(=O)N(CCCO)Cc2cc3cc4c(cc3[nH]c2=O)OCCO4)cc1 | -14% | -11%
c1ccc2[nH]c(SCc3ccc(-c4nnco4)cc3)nc2c1 | i | -8%
CC1(C(=O)Nc2ncc(Cc3ccc(Br)cc3)s2)Cc2ccccc2C(=O)O1 (configuration not stated) | -20% | -26%
C[C@@H]1C=C(C(=O)O)O[C@H](OCc2ccc(CO)cc2)C1 | i | -11%
CSc1nc(N)nc2c1ncn2C1OC(CO)C(O)C1O (configuration not stated) | i | 1%
CCOC(=O)Nc1ccc(S(=O)(=O)N2CCC(C)CC2)cc1 | i | 8%
Cc1cc2oc(C(=O)Nc3ccc(S(=O)(=O)Nc4ncccn4)cc3)c(C)c2cc1Cl | -10% | -20%
COc1cc(Cl)c(C)cc1NC(=O)c1ccccc1NC(=O)CN1CCN(C(C)=O)CC1 | i | -3%
O=Cc1ccc2noc(-c3ccc(F)cc3)c2c1 | i | -5%
CC(SC(C)C(=O)NN=Cc1cccc(Cl)c1)C(=O)NN=Cc1cccc(Cl)c1 (configuration not stated) | -19% | 1%
Cc1ccc(N(CC(=O)NCc2ccc3c(c2)OCO3)C(=O)c2csnn2)cc1 | -17% | -23%
Cc1cccc(-n2ncc3c(NC4CCCCC4)ncnc32)c1 | 22% | -17%
O=C(CN1CCCCC1)N=Nc1c(O)[nH]c2ccccc12 | 0% | -5%
C#CCOCCOCCOCCNc1nc(N2CCN(C(=O)[C@H](CCCCN)n3cc([C@@H](N)CO)nn3)CC2)nc(N2CCN(C(=O)[C@H](CCCCN)n3cc([C@@H](N)CC(C)C)nn3)CC2)n1 | i | -8%

Part of the list above, as comma-separated lines.
molecule,Vaccinia mCherry,VACV Venus inh
c1ccc2[nH]c(SCc3ccc(-c4nnco4)cc3)nc2c1,i,-8%
O=Cc1ccc2noc(-c3ccc(F)cc3)c2c1,i,-5%
Cc1cc2oc(C(=O)Nc3ccc(S(=O)(=O)Nc4ncccn4)cc3)c(C)c2cc1Cl,-10%,-20%

Screening results as filed in PubChem.
